StopGo reporter – lowers the luciferase signal of an FMDV 2A StopGo reporter | human cells with a luciferase reporter of 2A StopGo recoding; control for the full effect not named in the record | Potency, µM (titrated, usually from 57.9 µM), without a hit: top-dose signal change, negative = less light | 410,000 tested, 1.2% active; active = well fitted falling curve with a large enough effect; inconclusive = small, poorly fitted or top-dose-only effect; inactive = no such curve, though single readings can be large or run the other way; tested in HEK293T cells; also: nearly all actives have a fitted effect of over 45% in size; luciferase light after 4 h
Cruzain noTriton – cruzain (T. cruzi) inhibition without detergent. AID 1476. purified cruzain, Z-FR-AMC fluorescence, no detergent. 200,000 tested, 2.3% active. P25779. Potency, µM, for the others: max response, negative = inhibition, usual class: inhibitors;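 also: plate controls were enzyme without inhibitor for no effect and buffer without enzyme for full effect; nearly all actives have a fitted effect of over 40% in size; top concentration of the series not given in the record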
Target sequence (P25779 123-467 limits assumed): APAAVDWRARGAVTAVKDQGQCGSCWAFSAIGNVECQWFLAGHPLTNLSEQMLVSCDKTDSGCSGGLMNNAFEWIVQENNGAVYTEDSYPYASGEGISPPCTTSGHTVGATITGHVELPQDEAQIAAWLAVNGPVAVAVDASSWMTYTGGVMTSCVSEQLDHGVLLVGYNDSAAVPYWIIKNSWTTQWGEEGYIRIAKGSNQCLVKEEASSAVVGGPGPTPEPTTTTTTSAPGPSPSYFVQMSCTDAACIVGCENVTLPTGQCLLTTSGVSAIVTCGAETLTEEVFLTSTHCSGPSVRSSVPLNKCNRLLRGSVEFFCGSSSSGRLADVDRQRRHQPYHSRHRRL
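Detergent-free condition (0.00005% Triton X-100) in acetate buffer pH 5.5 with DTT. 1.5 nM enzyme and compound were pre-mixed 15 min, then 2 uM Z-FR-AMC substrate added; reaction progress from fluorescence change between first and third reads (60 s).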
Cruzain Triton – inhibitors of Trypanosoma cruzi cruzain with detergent; P25779; purified cruzain, Z-FR-AMC fluorescence, 0.01% Triton; Potency, µM, for inactives: max response, negative = inhibition, most hits filed as inhibitors; 200,000 tested, 0.43% active; AID 1478;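 also: plate controls were neutral wells for no effect and buffer without enzyme for full effect; nearly all actives have a fitted effect of over 40% in size; top concentration of the series not given in the record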
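In this qHTS format, compounds are incubated with 1.5 nM cruzain for 15 min at room temperature before 2 uM Z-FR-AMC is added. Release of AMC is followed at 360/450 nm, and progress is taken as the 60 s fluorescence difference.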
The depositor's hits bear a star; ? = inconclusive; & = joins results of further samples; [ ] = dose if it differs, or a comment. Unless noted, calls follow the shape of the dose curve; as a rule, active = well fitted curve in the direction sought with a large enough effect; inconclusive = small, poorly fitted or top-dose-only effect, or another doubt; inactive = no such curve, though single readings can be large; an effect the other way counts as inactive or inconclusive. Unless noted, % is scaled to controls: 0 for no effect and ±100 for the full control effect; potency is read from the fitted curve at half-maximal effect. This is a subset; count on the stated rates, not on these rows.

SMILES	StopGo reporter	Cruzain noTriton	Cruzain Triton
Cc1ccccc1-c1cncnc1NCc1cccs1	-16%	-9%	1.1%
c1ccc(CNc2ncncc2-c2ccoc2)cc1	-9%	2%	-2.0%
CC(=O)OCC1OC(n2cnc3c(=O)[nH]cnc32)C(OC(C)=O)C1OC(C)=O (stereo not drawn)	-8%	0%	1.3%
O=C(c1ccco1)N1CCC2(CC1)CN(c1ccccc1)C2	-27%	2%	0.8%
c1cncc(-c2cncnc2NC2CCNCC2)c1	-12%	25%	6.1%
COc1ccc(NC(=O)N2CCC3(CC2)CCN(C(=O)c2ccncc2)CC3)cc1	-11%	3%	1.9%
COc1ccc(-n2c(=O)c(-c3cn(C)c4ccccc34)nc3cnc(N4CCNCC4)nc32)cc1	-7%	3%	3.7%
Nc1ncnc2nc(Cl)[nH]c12	3%	2%	0.5%
O=C(c1csnn1)N1CCC2(CC1)CN(c1ccccc1)C2	-27%	3%	5.6%
CCC(=O)NCCC1CCc2ccc3c(c21)CCO3 (stereo not drawn)	-2%	?	4.2%
O=C(Nc1cccc(F)c1)N1CC[C@@]2(CCCN(S(=O)(=O)c3ccccc3)C2)C1	-8%	2%	-3.4%
O=C(Oc1ccccc1)N1CCC2(CCCN(Cc3nccs3)C2)CC1	8%	21%	0.4%
O=c1cc(-c2cc3ccccc3oc2=O)c2ccc(O)cc2o1	-12%	-13%	1.6%
Cc1nc2cnc(OCc3ccccc3)nc2n(CCC#N)c1=O	-13%	0%	-4.0%
COCCn1c(=O)cnc2cnc(Oc3ccc(OC)cc3)nc21	5%	-8%	-2.2%
COCCNc1nc(-c2ccccc2C)nc2ccccc12	-3%	-14%	0.0%
O=C(c1cnccn1)N1CCC[C@@]2(CCN(Cc3cc(C(F)(F)F)cc(C(F)(F)F)c3)C2)C1	-5%	9%	3.7%
Cc1nc2cnc(N3CCN(C)CC3)nc2n(C2CC2)c1=O	-24%	-17%	-23%
CC1CC(OC(=O)c2ccccc2O)CC(C)(C)C1 (stereo not drawn)	2%	-7%&3%	7.8%&-0.1%
CS(=O)(=O)N1CCC2(CC1)CN(C(c1ccccc1)c1ccccc1)C2	-2%	-10%	1.6%
CC(C)C(N)C(=O)OCCOCn1cnc2c(=O)[nH]c(N)nc21 (stereo not drawn)	34%[activator]	?	0.7%
COCCn1c(=O)c(CCc2ccccc2)nc2cnc(N3CCNCC3)nc21	-13%	6%	-7.8%
CN(C)c1ccc(-c2cc(NCc3ccccc3)ncn2)cc1	10%	-2%	-11%
O=C(Nc1cccc(F)c1)N1CC2(CCN(C(=O)c3csnn3)CC2)C1	-5%	-11%	-0.4%
Cc1cc(NC(=O)Nc2ccc(N(C)C)cc2)c2cc(F)cc(F)c2n1	-11%	?	-2.5%

3 compounds from above, sorted by heavy-atom count, descending.
SMILES	StopGo reporter	Cruzain noTriton	Cruzain Triton
CC(=O)OCC1OC(n2cnc3c(=O)[nH]cnc32)C(OC(C)=O)C1OC(C)=O (stereo not drawn)	-8%	0%	1.3%
O=C(c1csnn1)N1CCC2(CC1)CN(c1ccccc1)C2	-27%	3%	5.6%
CCC(=O)NCCC1CCc2ccc3c(c21)CCO3 (stereo not drawn)	-2%	?	4.2%

(continued)
SMILES	StopGo reporter	Cruzain noTriton	Cruzain Triton
CC(C)CN1CC[C@@]2(CCCN(C(=O)Oc3ccccc3)C2)C1	-5%	3%	1.6%
COCCn1c(=O)c(-c2ccc(F)cc2)nc2cnc(Oc3ccc(OC)cc3)nc21	?	8%	-1.5%
CN(C)c1ccc(-c2nc(NCCN3CCOCC3)c3ccccc3n2)cc1	14%	0%	-4.9%
O=C(O)C1CC[C@@](C(=O)O)(c2ccccc2)c2ccccc21 (stereo partly drawn)	-14%	-5%	1.2%
CC(C)NC(=O)N1CC2(CCN(C(=O)c3ccncc3)CC2)C1	-17%	3%	4.1%
COc1ccc(Oc2ncc3nc(-c4cccs4)c(=O)n(C)c3n2)cc1	6%	-2%	9.3%
CN1CCC2(CC1)CCN(C(=O)c1ccco1)CC2	-6%	-8%	-0.8%
COC(=O)N1c2ccccc2C23[C@@H]4CN5CCC[C@]6(CCC12C(O)(C6)C4=O)[C@H]53	-3%	-5%	2.9%
CC(=O)OCC(OC(C)=O)C(OC(C)=O)C(OC(C)=O)C(OC(C)=O)C(COC(C)=O)OC(C)=O (stereo not drawn)	-11%	?	4.5%
N[C@@H](Cn1c2c(c(=O)[nH]c1=O)CCC2)C(=O)O	-17%	3%	3.9%
O=c1c(CCc2ccccc2)nc2cncnc2n1C1CC1	0%	7%	-0.1%
CCOC(=O)c1c(C)cc(OC)cc1O	9%	-8%	-4.2%
Cc1noc(C)c1-c1cncnc1N(C)Cc1ccco1	-8%	9%	0.7%
CCOC(=O)C(CCc1ccccc1)NC(C)C(=O)N1C(C(=O)O)CC2CCCC21 (stereo not drawn)	3%	7%	3.9%
CC(C)CN1CCCC2(CCN(S(=O)(=O)c3ccccc3)CC2)C1	30%[activator]	-13%	4.8%
CCNc1ncc2nc(-c3cn(C)c4ccccc34)c(=O)n(Cc3cccc(OC)c3)c2n1	-9%	-20%	4.3%
O=C(Nc1cccc(F)c1)N1CC[C@@]2(CCCNC2)C1	-10%	3%	-0.2%
COC(=O)N1CCC2(CC1)CN(C(=O)Nc1ccc(OC)cc1)C2	0%	3%	0.5%
c1cncc([C@@H]2CCCCN2)c1	2%	-3%&-6%	0.0%&1.3%
CC(=O)OC1CCC2(C)C(=CC=C3C2CCC2(C)C3CCC2C(C)/C=C/C(C)C(C)C)C1(C)C (stereo not drawn)	-3%	-8%	-1.0%
COc1ccc([C@@H]2[C@@H](O)[C@H](O)[C@@H](C)N2C)cc1OC	-12%	-7%	13%
COc1cc2c(cc1OC)-c1cc3cc(OC)c(OC)cc3c(=O)n1CC2	-16%	?	-4.2%
CN(Cc1ccco1)c1ncnc2ccc(-c3ccccc3C#N)cc12	?	-8%	-2.1%
O=C(c1cccc(F)c1)N1CCC2(CC1)CCN(c1ccccn1)CC2	?	-5%	1.9%
COCCn1c(=O)c(-c2ccc(Cl)cc2)nc2cnc(Oc3ccc(OC)cc3)nc21	-4%	1%	5.8%

Following part.
SMILES	StopGo reporter	Cruzain noTriton	Cruzain Triton
COCC(=O)N1CCC2(CC1)CCN(C(c1ccccc1)c1ccccc1)CC2	-15%	-3%	2.5%
COCCn1c(=O)c(-c2cccs2)nc2cnc(Oc3ccc(OC)cc3)nc21	?	?	-1.6%
COCCn1c(=O)cnc2cnc(OC)nc21	-11%	-14%	-4.6%
Cc1cccc(CNc2ncncc2-c2ccccc2CN(C)C)c1	-21%	1%	8.8%
O=C(O)c1c(C(=O)O)c2ccccc2[nH]c1=O	-3%	-9%	-5.4%
O=C(Nc1cccc(F)c1)N1CCCC2(CCN(C(=O)Oc3ccccc3)CC2)C1	-4%	10%	-2.0%
CN(C)c1ncnc2ccc(-c3ccoc3)cc12	-17%	-14%	0.1%
COc1cccc(Cn2c(=O)c(CCc3ccccc3)nc3cnc(N4CCNCC4)nc32)c1	-4%	4%	-1.2%
COc1ccccc1CNc1ncncc1-c1ccoc1	1%	-26%	2.4%
CN1CC[C@@]2(CCCN(S(=O)(=O)c3ccccc3)C2)C1	-6%	-5%	3.5%
COc1ccc(CNc2ccnc(-c3cccnc3)n2)c(OC)c1	?	14%	1.2%
Cn1c(=O)c(-c2ccc(Cl)cc2)nc2cnc(N3CCOCC3)nc21	25%	-11%	-0.4%
COc1ccc(C2c3[nH]c4ccccc4c3CC3C(=O)N(CCc4ccc(OC)c(OC)c4)CC(=O)N32)cc1 (stereo not drawn)	3%	?	-3.0%
CN(C)c1ncc2nc(-c3cc(F)cc(F)c3)c(=O)n(C3CC3)c2n1	-9%	14%	2.7%
O=C(c1ccco1)N1CCC2(CC1)CCN(c1ccccn1)CC2	-27%	0%	2.2%
COc1ccc2[nH]c(-c3ccccc3)c(CCNC(C)=O)c2c1	-25%&-10%	?	0.9%
Cc1cnc(CNc2ncncc2-c2ccccc2C)cn1	4%	2%	2.9%
c1ccc2c(Nc3ccncc3)nc(-c3ccoc3)nc2c1	2%	-4%	-15%
CC(=O)N1CCC2(CC1)CCN(c1cccc(-c3ccccc3)c1)CC2	-24%	?	-4.0%
S=C=NCc1ccccc1	52%[activator]	-8%	0.8%
Cc1ccc(O)cc1	9%	1%&0%	-1.2%&0.1%
N#Cc1ccc(CN2CCC3(CCNCC3)CC2)cc1	-22%	-1%	-0.9%
CC1(COc2ccc(C[C@H]3SC(=O)NC3=O)cc2)CCCCC1	31%[activator]	3%	0.5%
Cc1ccccc1-c1cncnc1Nc1ccccc1	8%	1%	-1.1%
CS(=O)(=O)N1CCC2(CCN(Cc3ccncc3)CC2)CC1	-8%	-6%	-0.5%

Individual results from the list.
Result of COCCn1c(=O)cnc2cnc(OC)nc21 under Cruzain Triton: -4.6%
Result of O=C(c1ccco1)N1CCC2(CC1)CCN(c1ccccn1)CC2 under Cruzain Triton: 2.2%

More structures
SMILES	StopGo reporter	Cruzain noTriton	Cruzain Triton
O=C(Nc1ccccc1)N[C@H]1C[C@H](C(=O)O)Nc2cc(Cl)cc(Cl)c21	-15%	15%	-1.3%
O=C(c1cnccn1)N1CCC2(CC1)CCN(c1ccccn1)CC2	-14%	8%	-1.0%
CCC(=O)OC1CCC2C3CCC4=CC(=O)CC[C@@]4(C)C3CC[C@]12C (stereo partly drawn)	-16%	1%	-4.9%
C=C(C)C1Cc2c(ccc(C(=O)O)c2O)O1 (stereo not drawn)	-10%	9%	1.4%
O=C1C=CC(=O)c2c(O)c(Cl)c(Cl)c(O)c21	-11%	-4%	2.0%
CC1=C2C(O)C(=O)OC3CC4C(C)(C)C(=O)C=C[C@]4(C)C(CC1)[C@@]23C (stereo partly drawn)	-8%	3%	7.2%
CC(=O)N1CCC[C@@]2(CCN(C(=O)Nc3ccccc3)C2)C1	6%	-7%	1.5%
Nc1nc2c(nc(Sc3ccc(Cl)cc3)n2C2OC(CO)C(O)C2O)c(=O)[nH]1 (stereo not drawn)	-13%	0%	0.8%
COc1cccc2c3c(c(C)nc12)CC(CO)O3 (stereo not drawn)	-14%	-4%	-12%
c1ncc(CC2CCNCC2)[nH]1	-9%&-19%	-4%	0.8%
CC[C@H](C)C(=O)O[C@H]1C[C@H](O)C=C2C=C[C@H](C)[C@H](CC[C@@H](O)C[C@@H](O)CC(=O)O)[C@H]21	-3%&21%	-1%	1.2%
CN(C)c1ccc(-c2cncnc2NCCc2cnc[nH]2)cc1	-20%	-11%	1.1%
O=c1cc[nH]c(=S)[nH]1	?	0%	4.4%
COc1ccc(Cl)cc1N=Nc1ncc[nH]1	-18%	?	7.6%
COC(=O)C1=C(C)NC(C)=C([N+](=O)[O-])[C@@H]1c1ccccc1C(F)(F)F	-11%&-12%	-7%&1%	-1.4%&1.9%
COc1ccc2[nH]cc(CCNc3cc(-c4cccc(C#N)c4)ncn3)c2c1	-25%	-17%	-12%
COc1ccc2[nH]cc(CCNc3ncncc3-c3ccccc3Cl)c2c1	35µM*	-10%	-4.5%
Cc1ccc2c(c1)C(=O)[C@]1(O)CCN(c3ccccc3)C1=N2	-19%	6%	-4.1%
c1cncc(CNc2nc(-c3ccoc3)nc3ccccc23)c1	-13%	-1%	-10%
CN1CCCC2(CCN(C(=O)Oc3ccccc3)CC2)C1	20%	14%	3.9%
COc1ccccc1CNc1nc(-c2ccc(N(C)C)cc2)nc2ccccc12	18%	-18%	-16%
CCCCCCCC(=O)O[C@H](CC(=O)O)C[N+](C)(C)C	-19%	-3%	5.0%
COc1ccccc1CN1CCCC2(CCN(C(=O)c3cnccn3)CC2)C1	-5%	-1%	0.5%
FC(F)(F)c1ccccc1-c1cncnc1-n1ccnc1	-15%	9%	0.4%
CN1CCCC2(CCN(C(=O)c3ccncc3)CC2)C1	-15%	-11%	-0.8%

The list continues.
SMILES	StopGo reporter	Cruzain noTriton	Cruzain Triton
O=c1oc2cc(O)ccc2cc1-c1ccc2c(c1)OCCO2	-6%	-20%	-4.0%
C=C(C)C1CC=C(CO)CC1 (stereo not drawn)	0%	2%	3.3%
CN(Cc1ccco1)c1cc(-c2cccc(NS(C)(=O)=O)c2)ncn1	3%	-11%	-9.6%
Cc1ccccc1-c1ccc2ncnc(N3CCOCC3)c2c1	0%	-5%	-1.1%
COCC(=O)N1CCC2(CC1)CN(c1ccccc1)C2	-3%	14%	1.7%
O=C(Nc1cccc(F)c1)N1CCCC2(CCN(C(=O)c3cccc(F)c3)CC2)C1	-4%	1%	-1.8%
Clc1cccc2c1CN(C1=NCCN1)C2	-1%	-1%	2.2%
COc1ccc2[nH]cc(CCNc3ccnc(-c4ccc(C(=O)N(C)C)cc4)n3)c2c1	-9%	12%	-1.9%

Compound profiles (already shown).
O=c1oc2cc(O)ccc2cc1-c1ccc2c(c1)OCCO2 across the screens: StopGo reporter: -6%; Cruzain noTriton: -20%; Cruzain Triton: -4.0%
COCC(=O)N1CCC2(CC1)CN(c1ccccc1)C2 across the screens: StopGo reporter: -3%; Cruzain noTriton: 14%; Cruzain Triton: 1.7%
